DUX4 txn inh: DUX4-mediated transcription inhibition. 293T-iDUX4 ZSCAN4-Gaussia luciferase reporter, 24 h; hits give low values. activity change, negative = inhibition, % (no concentration beside the values). 0.8% of 37,000 active;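 active = -10% or lower and over 25 points stronger than a control reporter; inconclusive = -10% or lower with a smaller gap; inactive = above -10%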;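 note: 0% = median of neutral control wells and -100% = median of positive control wells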
DUX4 txn inh difference: recorded beside DUX4 txn inh, whose call it bears; Gaussia minus Italica difference, %; measured here: selective DUX4 reporter inhibition;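 worked out from the two reporters; negative = selective loss of the DUX4 reporter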
DUX4 txn inh control: second read-out of DUX4 txn inh, no call of its own (marks repeat the call); activity change, negative = inhibition, %; measured here: Italica tet-on control reporter;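 0 = neutral control and -100 = positive control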
* = called active by the depositor; ? = inconclusive; nt = no result given; ! = repeats disagree.

SMILES	DUX4 txn inh	DUX4 txn inh difference	DUX4 txn inh control
CCC(=O)N1[C@@H](CO)[C@H](c2ccc(-c3ccccc3OC)cc2)C12CN(C(C)=O)C2	11	5	6.1
O=C(C1CCOCC1)N1CC(=O)N2[C@@H](CO)[C@@H](c3ccc(C#Cc4cccc(F)c4)cc3)[C@@H]2C1	-4	-6	2.1
C[C@H]1CN([C@@H](C)CO)C(=O)c2ccccc2-c2ccccc2CO[C@H]1CN(C)Cc1ccc(-c2ccccc2)cc1	-3	-4	1.4
CN(C)C(=O)c1ccc(-c2ccc([C@@H]3[C@H]4CN(C(=O)CC5CC5)CC(=O)N4[C@H]3CO)cc2)cc1	2	1	1.1
O=C(C[C@H]1CC[C@H]2[C@@H](COC[C@@H](O)CN2Cc2nccs2)O1)NCc1ccc(F)cc1	0	-1	1.1
O=C(C[C@H]1C=C[C@@H](NC(=O)C2CCC2)[C@H](CO)O1)NCCCN1CCOCC1	3	0	3.7
Cc1noc(C)c1C(=O)N(C)C[C@H]1OCc2ccccc2-c2ccccc2C(=O)N([C@@H](C)CO)C[C@H]1C	10	-7	16
CN(C[C@@H]1[C@H](c2ccccc2)[C@@H](CO)N1C(=O)C1CCC1)C(=O)c1ccccn1	-6	-3	-3.4
C[C@@H]1CN([C@H](C)CO)C(=O)c2c(c3ccccc3n2C)-c2ccccc2CO[C@H]1CN(C)S(=O)(=O)c1ccc([N+](=O)[O-])cc1	-8	24	-32
O=C(Nc1ccccc1)N1C[C@@H]2N[C@H](C1)C2c1ccc(-c2ccccc2F)cc1 (stereo partly specified)	?	4	0.4
C[C@H]1CN([C@@H](C)CO)C(=O)c2ccccc2-c2ccccc2CO[C@@H]1CN(C)Cc1ccc(Cl)c(Cl)c1	-42*	-36*	-5.9*
CCc1cnc(N2[C@@H](C#N)[C@H](c3ccc(C4=CCCCC4)cc3)[C@@H]2CO)s1	1	-4	4.8
CN1c2ccc(Br)cc2[C@@H]2[C@@H](CCN2C(=O)Nc2cccc(F)c2)[C@H]1CO	9	9	-0.2
C[C@@H]1CCCCO[C@H](CN(C)S(=O)(=O)c2cccs2)[C@H](C)CN([C@@H](C)CO)C(=O)c2cc(N(C)C)ccc2O1	4	3	1.8
COc1cccc(-c2ccc(C3[C@@H]4CN(S(=O)(=O)c5cn(C)cn5)C[C@H]3N4)cc2)c1 (stereo partly specified)	-34*!	-39*!	5.1*!
O=C(NCc1cc(F)cc(F)c1)[C@@H]1[C@@H](CO)[C@@H]2Cn3c(cccc3=O)[C@H]1N2C(=O)c1ccccn1	12	10	2.0
CN(C)CC(=O)N[C@H]1CC[C@H](CC(=O)NCCN2CCCCC2)O[C@H]1CO	1	0	0.7
O=C(Nc1ccc(F)cc1)Nc1ccc2c(c1)[C@@H]1C[C@@H](CC(=O)N3CCOCC3)O[C@@H](CO)[C@@H]1O2	-5	-4	-1.5
Cc1noc(C)c1NC(=O)Nc1ccc2c(c1)C(=O)N([C@@H](C)CO)C[C@@H](C)[C@H](CN(C)S(=O)(=O)c1cn(C)cn1)OCCCC[C@@H](C)O2	1	2	-1.0
CCCc1cn(CC[C@H]2CC[C@H](NC(=O)C3CCOCC3)[C@H](CO)O2)nn1	5	1	4.2
O=C(NCC1CC1)[C@@H]1[C@@H](CO)[C@@H]2Cn3c(ccc(C4=CCCC4)c3=O)[C@H]1N2CCC(F)(F)F	0	-1	1.3
CN1c2ccc(-c3ccc(F)cc3)cc2[C@@H]2[C@@H](CCN2C(=O)Cc2ccccn2)[C@H]1CO	-8	-15	6.9
CC(=O)N1CC2(C1)[C@H](c1ccc(-c3cccc(F)c3)cc1)[C@H](CO)N2CC1CCOCC1	?	nt	nt
Cn1cnc(CCNC(=O)C[C@H]2CC[C@@H]3[C@H](COC[C@@H](O)CN3C(=O)Nc3ccccc3)O2)c1	7	5	1.9
CO[C@@H]1CN(C)C(=O)c2ccc(NC(C)=O)cc2OC[C@@H](C)N(Cc2cccc(F)c2)C[C@@H]1C	-10	-14	4.3
CC(C)CC#Cc1ccc([C@H]2[C@@H](CO)N3C(=O)CN(C(=O)NC4CCCCC4)C[C@@H]23)cc1	?	nt	nt
COCCNC(=O)C[C@H]1C[C@H]2c3cc(NC(=O)NC4CCCC4)ccc3O[C@H]2[C@@H](CO)O1	6	4	2.0
O=C1CCC(=O)N[C@H](c2ccc(F)cc2)C/C=C\C[C@@H](c2ccc(F)cc2)N1	1	-3	4.1
N#C[C@H]1[C@H](c2ccc(C#CCC3CCCC3)cc2)[C@@H](CO)N1C(=O)c1ccccn1	-2	-5	3.0
O=C(C[C@H]1CC[C@H]2[C@@H](COC[C@H](O)CN2C(=O)Cc2ccccc2)O1)NC1CCCC1	4	3	1.2

Next section, starting with the last 4 of the part before.
SMILES	DUX4 txn inh	DUX4 txn inh difference	DUX4 txn inh control
COCCNC(=O)C[C@H]1C[C@H]2c3cc(NC(=O)NC4CCCC4)ccc3O[C@H]2[C@@H](CO)O1	6	4	2.0
O=C1CCC(=O)N[C@H](c2ccc(F)cc2)C/C=C\C[C@@H](c2ccc(F)cc2)N1	1	-3	4.1
N#C[C@H]1[C@H](c2ccc(C#CCC3CCCC3)cc2)[C@@H](CO)N1C(=O)c1ccccn1	-2	-5	3.0
O=C(C[C@H]1CC[C@H]2[C@@H](COC[C@H](O)CN2C(=O)Cc2ccccc2)O1)NC1CCCC1	4	3	1.2
CCCNC(=O)N(C)C[C@@H]1Oc2ncc(C#CC3CCCCC3)cc2C(=O)N([C@H](C)CO)C[C@@H]1C	1	1	0.3
COc1ccc2c3c(n(C)c2c1)[C@@H](CO)N(C(C)=O)CC31CN(C(=O)C2CC2)C1	13	-5	18
COc1cccc(C(=O)N2C[C@@H]3[C@H](c4ccccc42)[C@H](CO)N3Cc2ccccc2Cl)c1	0	4	-4.1
CCNC(=O)C[C@H]1CC[C@@H]2[C@H](COC[C@H](O)CN2S(=O)(=O)c2ccccc2F)O1	3	-6	9.1
CCCC#Cc1ccc([C@@H]2[C@@H](CO)N3C(=O)CN(C(=O)Nc4cc(F)ccc4F)C[C@H]23)cc1	5	4	1.5
O=C(Nc1cccc(F)c1)N1C[C@H]2[C@@H](c3ccccc31)[C@H](CO)N2C(=O)Cc1ccccc1	4	2	1.2
O=C(C[C@H]1CC[C@@H]2NC[C@H](O)COC[C@H]2O1)N1CCc2ccccc2C1	4	7	-2.7
OC[C@H]1[C@@H](c2ccc(-c3cccnc3)cc2)[C@@H]2CN(Cc3ccccn3)CCCCN12	1	-6	7.0
CC(C)NC(=O)Nc1ccc2c(c1)C(=O)N(C)[C@@H]1CC[C@@H](CC(=O)NCC3CCCCC3)O[C@H]1CO2	1	0	1.3
COc1ccc2c3c(n(C)c2c1)[C@@H](CO)N(C(=O)Cc1ccccn1)CC31CN(Cc2ccccn2)C1	9	7	1.3
Cc1cccc(-c2ccc([C@H]3[C@@H](CO)N4C(=O)CN(S(=O)(=O)c5cccc(F)c5)C[C@@H]34)cc2)c1	?	nt	nt
C[C@H](CO)N1C[C@H](C)[C@@H](CN(C)Cc2ccc(Cl)c(Cl)c2)OCc2cn(nn2)CCCC1=O	-3	-2	-0.8
COCC(=O)NC[C@@H]1[C@H](c2ccc(C3=CCCC3)cc2)[C@@H](CO)N1C(=O)C1CC1	-4	-2	-2.3
CCCNC(=O)C[C@@H]1CC[C@@H]2[C@H](COC[C@@H](O)CN2Cc2ccccc2F)O1	0	-3	3.6
C[C@H](CO)N1C[C@H](C)[C@@H](CN(C)S(C)(=O)=O)Oc2c(NC(=O)C3CCCCC3)cccc2C1=O	5	7	-1.4
C/C=C/c1ccc([C@H]2[C@@H](CO)N(S(C)(=O)=O)[C@H]2CN(CCC)C(C)=O)cc1	5	1	4.0
O=C(C[C@H]1C=C[C@@H](NC(=O)c2cnccn2)[C@H](CO)O1)NCc1ccccc1F	-9	-10	0.3
CN1C(=O)c2cc(NC(=O)c3ccc(Cl)cc3)ccc2OC[C@H]2O[C@@H](CC(=O)O)CC[C@H]21	1	-1	1.5
CC(C)CC#Cc1ccc([C@@H]2[C@H](CO)N3C(=O)CN(C(=O)Cc4cccnc4)C[C@@H]23)cc1	-1	5	-5.9
C[C@H](CO)N1C[C@H](C)[C@@H](CN(C)S(=O)(=O)c2ccccc2)OCCCC[C@H](C)Oc2ccc(NC(=O)Nc3ccc4c(c3)OCO4)cc2C1=O	2	1	1.4

Complete entries from above. Order of screens: DUX4 txn inh, DUX4 txn inh difference, DUX4 txn inh control
O=C(C[C@H]1C=C[C@@H](NC(=O)c2cnccn2)[C@H](CO)O1)NCc1ccccc1F reads -9, -10, 0.3
C[C@H](CO)N1C[C@H](C)[C@@H](CN(C)S(=O)(=O)c2ccccc2)OCCCC[C@H](C)Oc2ccc(NC(=O)Nc3ccc4c(c3)OCO4)cc2C1=O reads 2, 1, 1.4

Retrieved one by one from the entries so far:
SMILES	DUX4 txn inh	DUX4 txn inh difference	DUX4 txn inh control
CCCNC(=O)C[C@@H]1CC[C@@H]2[C@H](COC[C@@H](O)CN2Cc2ccccc2F)O1	0	-3	3.6
C[C@H](CO)N1C[C@H](C)[C@@H](CN(C)S(=O)(=O)c2ccccc2)OCCCC[C@H](C)Oc2ccc(NC(=O)Nc3ccc4c(c3)OCO4)cc2C1=O	2	1	1.4

Additional compounds follow.
SMILES	DUX4 txn inh	DUX4 txn inh difference	DUX4 txn inh control
C[C@H](CO)N1C[C@H](C)[C@H](CN(C)Cc2cccc(C(F)(F)F)c2)Oc2ncc(Br)cc2C1=O	0	-3	2.8
O=C(c1ccc2c(c1)OCO2)N1CCCCN2[C@H](CO)[C@@H](c3ccc(-c4ccccc4)cc3)[C@@H]2C1	-2	4	-5.6
CCC(=O)N1[C@H](CO)[C@H](c2ccccc2)[C@@H]1CN(CC)C(=O)c1cccc(F)c1	2	0	2.7
CCS(=O)(=O)N[C@H]1CC[C@@H](CC(=O)Nc2ccc(-c3ccccc3)cc2)O[C@@H]1CO	1	3	-2.0
O=C(C[C@@H]1C=C[C@H](NC(=O)c2ccncc2)[C@H](CO)O1)NCC1CC1	?	nt	nt
COc1cccc(-c2ccc3c(c2)[C@@H]2[C@@H](CCN2S(=O)(=O)c2cccc(OC)c2)[C@@H](CO)N3)c1	1	-10	11
CN1C(=O)c2cc(NS(=O)(=O)c3cccc(F)c3)ccc2OC[C@@H]2O[C@H](CC(=O)NCCN3CCCCC3)CC[C@@H]21	-2	0	-1.9
CNC[C@@H]1Oc2c(NC(=O)c3ccc(-c4nccs4)cc3)cccc2C(=O)N([C@@H](C)CO)C[C@H]1C	-1	5	-5.8
O=C(C[C@H]1CC[C@H]2[C@@H](COC[C@H](O)CN2Cc2ccc3c(c2)OCO3)O1)Nc1ccc(-c2ccccc2)cc1	?	nt	nt
N#Cc1ccc(-c2ccc([C@@H]3[C@H]4CN(C(=O)Cc5ccccc5)CC(=O)N4[C@H]3CO)cc2)cc1	-9	4	-13
C[C@H]1CN([C@@H](C)CO)C(=O)CCCn2nncc2CO[C@@H]1CN(C)S(=O)(=O)c1ccccc1C#N	1	1	0.6
CCNC(=O)Nc1ccc2c(c1)C(=O)N(C)[C@@H]1CC[C@@H](CC(=O)NCc3ccccc3F)O[C@H]1CO2	2	1	0.8
CN(C)C(=O)C[C@@H]1CC[C@@H]2[C@H](COC[C@H](O)CN2C(=O)C2CCOCC2)O1	8	0	8.9
C/C=C/c1ccccc1[C@H]1[C@@H](C#N)N(C(=O)CN2CCOCC2)[C@@H]1CO	8	1	7.1
C[C@H]1CN([C@@H](C)CO)C(=O)c2cc(NC(=O)Cn3cnnn3)ccc2O[C@H]1CN(C)C(=O)Nc1ccc2c(c1)OCO2	5	2	3.2
CO[C@@H](CN(C)S(=O)(=O)c1ccc(C)cc1)[C@@H](C)CN([C@H](C)CO)S(=O)(=O)c1cccc(Cl)c1	7	2	5.8
COc1ccc(NC(=O)N2CCCCN3[C@H](CO)[C@H](c4ccc(C#CCC(C)C)cc4)[C@@H]3C2)cc1	?	nt	nt
O=C(C[C@H]1CC[C@H]2[C@@H](COC[C@@H](O)CN2S(=O)(=O)c2ccc(F)cc2)O1)N[C@H]1CCN(Cc2ccccc2)C1	-4	-5	0.8
CCNC(=O)C[C@H]1CC[C@@H]2[C@H](COC[C@H](O)CN2C(=O)c2cc(Cl)cc(Cl)c2)O1	-3	0	-2.7
C[C@@H](O)C#Cc1ccc([C@@H]2[C@H]3CN(CC4CC4)CCCCN3[C@H]2CO)cc1	-1	-3	2.4
CN1[C@@H]2Cn3c(ccc(-c4ccccc4)c3=O)[C@H]1[C@@H](C(=O)NCC1CC1)[C@@H]2CO	3	0	2.7
C[C@H]1CN([C@@H](C)CO)C(=O)c2cc(C#Cc3ccccc3F)cnc2O[C@@H]1CN(C)C(=O)C1CCC1	-5	-5	-0.1
COCCNC(=O)C[C@H]1C[C@H]2c3cc(NS(C)(=O)=O)ccc3O[C@H]2[C@@H](CO)O1	7	5	2.3
Cc1cccc(-c2ccc([C@@H]3[C@H]4CN(C(=O)NC(C)C)CCCCN4[C@H]3CO)cc2)c1	-7	-3	-4.2
CO[C@@H]1CN(C)C(=O)c2ccc(NC(=O)Nc3ccccc3)cc2OC[C@@H](C)N(C(=O)CC2CC2)C[C@H]1C	-2	-4	2.3
O=C(NC1CCCCC1)[C@H]1N[C@H]2c3ccc(-c4cccc(F)c4)c(=O)n3C[C@H]2[C@@H]1CO	2	6	-4.5
O=C(C[C@@H]1C[C@H]2c3cc(NC(=O)c4ccc5c(c4)OCO5)ccc3O[C@H]2[C@H](CO)O1)NCc1cccc(F)c1	?	nt	nt
C[C@@H]1CCCCO[C@H](CN(C)CC2CCCCC2)[C@@H](C)CN([C@H](C)CO)C(=O)c2cc(NC(=O)C3CCCCC3)ccc2O1	-4	-5	2.0
COc1ccccc1NC(=O)N1C[C@@H]2[C@H](c3ccccc31)[C@H](CO)N2C(=O)c1ccccc1	-3	-6	3.9

From PubChem BioAssay

This is a subset; the hit share may differ from the screen's.
